UUG fidelity – modulators of start codon recognition fidelity in yeast; S. cerevisiae UUG-firefly luciferase reporter, luminescence/redox ratio; activity score, % at 18.7 µM; 350,000 compounds, 0.13% hits; AID 602363;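 active means replicate mean at a twofold rise or more, about +100% in these data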;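 further: firefly luciferase made from a UUG start codon reports start codon fidelity; reporter light over untreated wells divided by growth signal over untreated wells; some hits fall short of that in this replicate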
Env fusion inh – blocks HIV Env-driven cell-cell fusion | inhibition, % at 12.3 µM | HeLa-JRFL Env/CEM21 cell fusion, luciferase | 360,000 compounds, 1.1% hits;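 active means mean replicate inhibition score of at least 50 and every replicate individually at or above 50; inconclusive means only one of the two criteria met; inactive means mean below 50 and not all replicates reaching 50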;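 further: 0% = plate neutral controls and 100% = maraviroc near 300 nM; one replicate is shown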
PABP FP inh – PABP-poly(A) binding inhibition; 290,000 compounds, 1% hits; PABP-poly(A) RNA binding, fluorescence polarization; inhibition, % at 35 µM; P11940; AID 2014;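 active means 50% or more with normal probe brightness, or confirmed in later tests; inconclusive means above 50% with abnormal brightness, or retests that disagree; inactive means below 50% or failed in later tests; about a fifth of its hits are not listed in these tables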;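 further: calls also rest on retests at 20 µM and on dose response follow-up; controls were probe without protein and protein plus probe with vehicle; some compounds called inactive have numbers as strong as hits; many hits fall short of the cut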
Target sequence (P11940 whole entry, looked up): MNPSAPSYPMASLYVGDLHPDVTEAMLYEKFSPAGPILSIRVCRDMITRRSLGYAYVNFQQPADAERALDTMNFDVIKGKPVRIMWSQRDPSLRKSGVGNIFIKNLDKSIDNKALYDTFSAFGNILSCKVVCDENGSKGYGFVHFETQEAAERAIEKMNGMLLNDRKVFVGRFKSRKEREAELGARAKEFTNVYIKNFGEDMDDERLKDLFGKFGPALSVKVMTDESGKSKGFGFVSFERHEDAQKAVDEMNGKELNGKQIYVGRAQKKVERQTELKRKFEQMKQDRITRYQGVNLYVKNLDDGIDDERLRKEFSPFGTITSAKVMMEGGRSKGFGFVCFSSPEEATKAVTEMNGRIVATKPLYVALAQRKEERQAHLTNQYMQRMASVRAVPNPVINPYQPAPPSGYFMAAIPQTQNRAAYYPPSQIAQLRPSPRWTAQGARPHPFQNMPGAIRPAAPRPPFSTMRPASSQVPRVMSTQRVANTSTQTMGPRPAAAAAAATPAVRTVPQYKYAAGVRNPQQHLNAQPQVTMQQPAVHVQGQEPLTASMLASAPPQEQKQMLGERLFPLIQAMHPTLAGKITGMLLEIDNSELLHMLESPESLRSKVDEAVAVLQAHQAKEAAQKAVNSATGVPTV
MT1-MMP act inh – blocks activation of human MT1-MMP; HT1080 RFP-PRO-GFP cells, GFP/RFP ratio fluorescence, overnight; percent of plate control window, DMSO zero; GFP/RFP ratio change, % at 20 µM; 360,000 compounds, 0.061% hits;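 active means GFP/RFP ratio change of at least 30% with cell ATP level not reduced by more than half and red fluorescence within 50% of control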; further: strong numbers were not always called active
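Test system: HT1080 cells expressing an RFP-PRO-GFP fluorescent reporter construct / Compound dosing: single-point 20 µM compound, 1% DMSO / Schedule: cells overnight before dosing, compound overnight, 37 °C, 5% CO2 / Evaluation: GFP/RFP fluorescence ratio / Control set: DMSO and RFP-L50D-GFP cell wells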
eIF4H FP inh – inhibitors of RNA binding by human eIF4H | 290,000 compounds, 0.94% hits | Q15056 | inhibition, % at 35 µM | eIF4H fluorescence polarization binding assay;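 active means 50% or more with normal probe brightness, or confirmed in later tests; inconclusive means above 50% with abnormal brightness, or retests that disagree; inactive means below 50% or failed in later tests; about a fifth of its hits are not listed in these tables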;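 further: calls also rest on retests at 20 µM and on dose response follow-up; 0% = protein and probe with vehicle and 100% = probe without protein; strong numbers were not always called active; many hits fall short of the cut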
Rce1 inhib – yeast Ras-converting enzyme inhibition. yeast membranes, quenched prenylated peptide cleavage fluorescence. 290,000 compounds, 0.27% hits. calls only. AID 2563;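 active means fall in fluorescence gain of 50% or more versus controls, with final raw signal at or below 3038400; inconclusive means same 50% fall but final raw signal above 3038400; inactive means fall in fluorescence gain under 50%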;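 further: plate controls were neutral control wells for no effect and wells lacking membranes for full effect; tested at 10 µM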
CSC inhib – blocks cancer stem cells | cancer stem cell-like cells viability, luminescence | inhibition, % at 7.5 µM | 300,000 compounds, 1.1% hits | AID 2717;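 active means mean at 75% or more and at least half the replicates too; inconclusive means mean and replicates disagree; tested in HMLE shEcad cells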;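 further: 0% = median of negative and 100% = median of positive control wells; the first replicate is given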
MT1-MMP act inh RFP – further read-out of MT1-MMP act inh, marked with its call; RFP signal change, %; measured here: RFP expression control read;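 0 = vehicle wells; hits needed this value within 50% of zero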
* = called active by the depositor; i = inactive; ? = inconclusive; · = no result given.

Results follow in this order: UUG fidelity	Env fusion inh	PABP FP inh	MT1-MMP act inh	MT1-MMP act inh RFP	eIF4H FP inh	Rce1 inhib	CSC inhib
NS(=O)(=O)c1ccc(CCNC(=O)c2ccc(Cl)c(S(=O)(=O)N3CCCCC3)c2)cc1
→ 4	31	·	1	-23	·	·	-12
CC(NC(=O)CCn1nc(-c2ccc(Cl)cc2)ccc1=O)c1ccccc1 (centres undefined)
→ -2	11	4	-3	0	-1	i	0
Cc1cc(=S)cc(C)n1CCCn1ccnc1
→ -8	·	7	3	5	-5	i	-9
COC(=O)C(/C=N/OCc1ccc([N+](=O)[O-])cc1)NC(=O)c1cccc(Cl)c1 (centres undefined)
→ 6	·	1	0	-1	8	i	2
c1ccc2c(c1)OCCOCCOCCOCCOCCOc1ccccc1OCCOCCOCCO2
→ ·	?	1	-13	-13	0	i	8
CCOc1ccc(NC(=O)c2cc(=O)[nH]c3ccccc23)cc1
→ -10	9	-14	-3	-2	0	i	·
O=C(NCc1ccccc1)C1c2ccccc2Oc2ccccc21
→ -20	10	8	-4	-4	1	i	-15
COc1ccc(S(=O)(=O)NCCC(C)C)cc1OC
→ -21	?	-6	5	4	-4	i	-3
N#Cc1ccc(Nc2nc(NCc3ccccc3)nc3ccsc23)cc1
→ -7	16	·	-6	-17	·	·	·
COC(=O)c1c(NC(=O)COC(=O)CC(NC(C)=O)c2ccccc2)sc(C)c1C (centres undefined)
→ -9	·	·	3	2	·	i	-7
Cc1ccccc1NC(=O)Cc1nnc(SCC(=O)Nc2ccccc2)n1C
→ -11	11	4	-5	-1	-1	i	·
CN1C[C@@H]2C[C@@H](c3cccn3-c3nccs3)N3CCC[C@@]23C1=O
→ ·	-13	4	3	3	2	i	-5
Cc1cc(C)c(NC(=O)C[N+](C)(C)CC(O)COc2cccc3ccccc23)c(C)c1 (centres undefined)
→ ·	-3	20	-10	3	11	i	-4
CCn1c(O)c(C=NC2CCCC2)sc1=S
→ 0	-46	-11	10	0	1	i	-16
Cc1cccc(C(C)C)c1NC(=O)CSc1cccc[n+]1[O-]
→ -28	·	·	-2	1	·	·	-8
CC(C)(C)OC(=O)[C@H]1[C@H](c2ccc([N+](=O)[O-])cc2)C2(C(=O)c3ccccc3C2=O)C2c3ccccc3C=NN21 (some centres undefined)
→ ·	-4	0	-1	-2	2	i	0
O=C(N/N=C/c1ccncc1)c1cc2ccccc2o1
→ ·	17	-5	9	7	-6	i	-1
O=C(Nc1ccc(-c2nc3ncccc3o2)cc1)c1ccc(Br)o1
→ -33	-153	2	-16	-9	-10	i	27
O=C(NC1CC(=O)N(c2cccc(F)c2)C1)N1CCN(C(=O)c2ccco2)CC1 (centres undefined)
→ ·	·	·	5	4	·	i	-3
CCOP(=O)(OCC)C(Nc1ccccc1)c1cc(OC)ccc1OC (centres undefined)
→ 15	-14	4	-13	0	1	i	-25
CCN1CCN(S(=O)(=O)c2cc(C(=O)O)ccc2Cl)CC1
→ -8	-17	8	-2	1	4	i	-16
O=C(O)CSCC(=O)Nc1ccc(Br)c(C(F)(F)F)c1
→ 1	-4	-5	1	7	-5	i	3
Nc1c(C(=O)O)sc2nc(-c3ccccc3)cc(-c3ccccc3)c12
→ ·	-8	30	-14	12	44	i	-2
CC12CCC(=O)N1C(C(=O)O)Cc1c2[nH]c2ccccc12 (centres undefined)
→ -16	13	12	10	3	-7	i	14
COc1ccc(C(=Cc2ccccc2)C(=O)O)cc1
→ -18	-3	·	-1	1	·	·	·
Cc1ccc(C2(C)NC(=O)N(CC(=O)Nc3cc(S(=O)(=O)N4CCOCC4)ccc3C)C2=O)cc1 (centres undefined)
→ ·	-19	9	2	3	-4	i	-19
O=C(NCc1ccco1)c1cc2cc3ccc(Cl)cc3nc2o1
→ -12	-354	14	-2	-4	2	i	25
Cc1cc(C(=O)Nc2nc3c(C)cccc3s2)c(C)o1
→ ·	·	7	-1	2	-6	i	·
CCN(CC)c1ccc2cc(-c3nnc(-c4ccccc4)o3)c(=O)oc2c1
→ -14	·	5	-78	-2	?	i	-1
CCN(CC)S(=O)(=O)c1cccc(C(=O)OCC(=O)c2ccc3c(c2)NC(=O)CO3)c1
→ -5	-7	10	-6	-6	-5	·	-14
CC1CC(C)CN(C(=O)C2CC(=O)N(c3ccc(F)cc3)C2)C1 (centres undefined)
→ 0	-24	11	4	3	6	i	-12
Cc1ccc(S(=O)(=O)N(CC(=O)NCC2CCCO2)c2cccc([N+](=O)[O-])c2)cc1 (centres undefined)
→ ·	19	-1	-3	-1	-2	i	8
COc1cc(CN2CCCCCC2)cc([N+](=O)[O-])c1O
→ -5	-7	1	3	2	-2	i	-2
COc1ccc(/C(=N\Nc2ccccc2C(=O)O)c2ccccc2)cc1
→ ·	-49	1	4	4	26	i	13
COc1cc(OC)cc(C(=O)/C=C2\Sc3ccccc3N2C)c1
→ 10	13	5	1	2	7	i	2
COc1ccc(CN(C(=O)CSc2nnc(-c3ccc(F)cc3)o2)c2ccc(F)cc2)cc1
→ -7	·	-4	17	-4	3	i	11
CC1(C)OC(=O)N(c2ccccn2)C1(C)O (centres undefined)
→ -5	·	3	7	7	-10	i	0
Cc1ccc(OCCCn2ccnc2)c([N+](=O)[O-])c1
→ ·	-53	2	0	-1	0	i	3
CC(=O)NC(c1ccc(F)c(F)c1)c1nc(-c2ccncc2)cs1 (centres undefined)
→ -18	16	·	2	-3	·	·	·
Cc1cccc(NC(=O)c2sc(NC(=O)c3ccco3)c(C#N)c2C)c1C
→ -22	·	-6	2	-3	5	i	8
Cc1[nH]c2ccccc2c1C(=O)CSC(=S)N(C)C
→ -5	·	37	4	8	-4	i	-6
O=C1CSC(=Nc2ccc(O)cc2)N1c1ccc(O)cc1
→ -24	·	-5	3	6	-17	i	8
Cc1ccc(-n2ncc3c(NNC(=O)c4ccco4)ncnc32)c(C)c1
→ -27	-7	2	5	4	15	i	-7
CC(=O)c1nc(N2C(=O)CC(Cc3cccc(C)c3)C2=O)sc1C (centres undefined)
→ -5	-26	-10	-4	2	0	i	1
COc1ccc(C2/C=C\CN(C(=O)C3CC3)[C@H](Cc3ccccc3)C(=O)N2Cc2ccc(F)cc2)cc1 (some centres undefined)
→ -10	·	-12	-6	-16	-4	i	0
O=C(CCn1c(=O)[nH]c2ccccc2c1=O)N1CCN(c2cccc(C(F)(F)F)c2)CC1
→ 6	19	-9	2	-1	-1	i	-11
CC1(C)COC(c2ccc3c(c2)OCO3)OC1
→ -24	-2	·	2	0	·	·	·
Cc1cc(O)ccc1Nc1cc(-c2cccc(N)c2)ncn1
→ -13	1	·	3	-1	·	·	·
CC(=O)Nc1cc(NC(C)=O)cc(C(=O)OC(C)C(=O)Nc2ccc(S(=O)(=O)N3CCCC3)cc2)c1 (centres undefined)
→ 9	-3	·	2	0	·	i	-9
C/C(CC(=O)Nc1cccc(Cl)c1Cl)=N\NC(=O)C(=O)NC1CCCCC1
→ -4	16	7	-2	2	-3	i	·

More entries.
Results follow in this order: UUG fidelity	Env fusion inh	PABP FP inh	MT1-MMP act inh	MT1-MMP act inh RFP	eIF4H FP inh	Rce1 inhib	CSC inhib
CN(C)S(=O)(=O)c1ccc(NC(=O)CN2CCOCC2)cc1
→ ·	-15	2	-4	0	4	i	-4
COc1cc(N)c(C(O)c2nccc3cc(OC)c(OC)cc23)cc1OC (centres undefined)
→ -23	-8	4	17	-2	-2	i	-19
COC(=O)c1csc(S(=O)(=O)N2CCCCC2)c1OC
→ ·	2	2	2	-2	-4	i	-6
COc1ccc(NC(=S)NC(=O)/C=C/c2ccc(F)cc2)cc1
→ -13	-56	-8	-1	0	-7	i	9
COc1ccc(CCNC(=O)COC(=O)C2CC2)cc1
→ ·	3	-6	3	1	2	i	-8
C=CCNC(=S)Nc1cc(C)ccn1
→ -15	8	-7	-1	1	0	i	-8
COn1c(SCC(N)=O)nc2ccccc2c1=O
→ -12	·	-10	-3	3	-1	i	-1
Cc1nn2c(=O)cc(COC(=O)c3ccc(S(=O)(=O)N4CCCCC4)cc3)nc2s1
→ ·	·	4	0	0	9	i	-10
CC(C)C(NS(=O)(=O)c1ccccc1F)C(=O)N1CCc2ccccc2C1 (centres undefined)
→ -7	13	-3	3	2	-3	i	-5
CC(=O)NC(NC(=S)Nc1ccc(S(N)(=O)=O)cc1)C(Cl)(Cl)Cl (centres undefined)
→ -24	-23	11	-3	-1	2	i	-8

Some of the entries above, reformatted.
SMILES,UUG fidelity,Env fusion inh,PABP FP inh,MT1-MMP act inh,MT1-MMP act inh RFP,eIF4H FP inh,Rce1 inhib,CSC inhib
CC(=O)Nc1cc(NC(C)=O)cc(C(=O)OC(C)C(=O)Nc2ccc(S(=O)(=O)N3CCCC3)cc2)c1 (centres undefined),9,-3,·,2,0,·,i,-9
C/C(CC(=O)Nc1cccc(Cl)c1Cl)=N\NC(=O)C(=O)NC1CCCCC1,-4,16,7,-2,2,-3,i,·
CN(C)S(=O)(=O)c1ccc(NC(=O)CN2CCOCC2)cc1,·,-15,2,-4,0,4,i,-4
COc1cc(N)c(C(O)c2nccc3cc(OC)c(OC)cc23)cc1OC (centres undefined),-23,-8,4,17,-2,-2,i,-19
COC(=O)c1csc(S(=O)(=O)N2CCCCC2)c1OC,·,2,2,2,-2,-4,i,-6
COc1ccc(NC(=S)NC(=O)/C=C/c2ccc(F)cc2)cc1,-13,-56,-8,-1,0,-7,i,9
COc1ccc(CCNC(=O)COC(=O)C2CC2)cc1,·,3,-6,3,1,2,i,-8
C=CCNC(=S)Nc1cc(C)ccn1,-15,8,-7,-1,1,0,i,-8
COn1c(SCC(N)=O)nc2ccccc2c1=O,-12,·,-10,-3,3,-1,i,-1
Cc1nn2c(=O)cc(COC(=O)c3ccc(S(=O)(=O)N4CCCCC4)cc3)nc2s1,·,·,4,0,0,9,i,-10
CC(C)C(NS(=O)(=O)c1ccccc1F)C(=O)N1CCc2ccccc2C1 (centres undefined),-7,13,-3,3,2,-3,i,-5

Source: PubChem BioAssay
